Assay outcomes: PubChem BioAssay, National Center for Advancing Translational Sciences (NCATS)
miR-21 FLuc: raises the signal of a miR-21 reporter | Potency, µM (top dose mostly 38.3 µM), inactives show at the top dose reporter change, positive = more light | HeLa miR-21 FLuc reporter, luciferase, 48 h | 340,000 tested, under 10 active; active = well fitted rising curve with a large enough effect; inconclusive = small, poorly fitted or top-dose-only effect; inactive = no such curve, though single readings can be large or run the other way;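 further: % of control where 0% means no effect; miR-21 action dims this reporter so a rising signal means less miR-21 action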
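Compounds were titrated across several concentrations (up to approximately 40 uM) and incubated 48 hours with HeLa miR-21-FLuc reporter cells (miR-21 target sequence downstream of FLuc, endogenous miR-21). Readout was firefly luciferase luminescence after lytic detection reagent.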
GLA inh pH 4.5: inhibitors of human alpha-galactosidase A at pH 4.5; 230,000 tested, under 10 active; P06280; purified enzyme, 4-MU-alpha-Gal fluorescence, pH 4.5; activity change, negative = inhibition, % at 105 µM; inconclusive = small, poorly fitted or top-dose-only inhibition, or a rising curve; inactive = flat fitted curve, though single readings scatter; no compound was filed as active;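 further: 0% = full activity with enzyme and -100% = basal without enzyme; dose as in the result columns while the protocol names 77 µM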
Target sequence (P06280 whole entry, looked up): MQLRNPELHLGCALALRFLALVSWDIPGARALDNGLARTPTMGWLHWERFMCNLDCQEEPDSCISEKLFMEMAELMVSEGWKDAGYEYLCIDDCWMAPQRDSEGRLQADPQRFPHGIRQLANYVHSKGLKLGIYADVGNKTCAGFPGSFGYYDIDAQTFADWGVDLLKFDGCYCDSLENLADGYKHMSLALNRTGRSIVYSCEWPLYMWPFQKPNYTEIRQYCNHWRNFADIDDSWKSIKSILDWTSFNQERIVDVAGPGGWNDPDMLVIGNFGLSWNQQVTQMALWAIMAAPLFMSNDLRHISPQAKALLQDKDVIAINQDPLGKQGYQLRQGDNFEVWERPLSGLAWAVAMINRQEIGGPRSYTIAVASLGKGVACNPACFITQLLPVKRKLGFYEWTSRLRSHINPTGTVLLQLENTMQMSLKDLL
Rango release inh: inhibitors of RanGTP-induced Rango-importin beta complex dissociation; 0.071% of 340,000 active; Potency, µM (doses to about 46.1 µM), for inactives: top-dose activity change, negative = inhibition; AID 540253; Biochemical FRET Rango-importin beta, RanGTP-induced dissociation; active means falling FRET ratio curve, often poorly fitted, with flat reads before Ran was added; inconclusive means other falling curves, or compound fluorescence or quenching; inactive means flat or rising ratio curve;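 further: potency means the concentration at half of the fitted maximal effect; % of control where 0% means no effect; nearly all actives have a fitted effect of over 45% in size; -100% = wells without RanGTP and RCC1; the record marks most hits as doubtful in a second field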
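FRET read at 45 min, room temperature: inhibitors block the CFP/YFP signal rise when RanGTP (0.6 uM Ran, 2 mM GTP, 0.2 uM RCC1) frees Rango (0.1 uM) from importin beta (0.25 uM). Pre-read after 5 min compound exposure flags interference.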
Rango complex inh: Rango-importin beta binding inhibition; Q14974; Rango CFP/YFP FRET sensor + importin beta, 45 min; Potency, µM (series often up to 92.2 µM), inactives show top-dose inhibition of complex formation; 0.031% of 340,000 active; AID 540263; active = rising FRET ratio curve, often small or poorly fitted; inconclusive = mostly compound fluorescence or quenching in the first reads; inactive = flat curves in all reads;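 further: potency means the concentration at half of the fitted maximal effect; 0% = DMSO wells and 100% = buffer wells lacking importin beta; nearly all actives have a fitted effect of over 15% in size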
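FRET biosensor (snurportin 1 IBB flanked by EYFP and cerulean), 50 nM, with compound 5 min, then 0.125 microM importin beta in PBS, 1 mM DTT, 0.02% Tween-20, 0.1% BSA. CFP/YFP ratio read after 45 min at room temperature; pre-read flags interference.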
The depositor's hits bear a star; ? = inconclusive; . = not tested or not shown. Only part of the results is shown, so the mix of outcomes need not match the whole.

entry	miR-21 FLuc	Rango complex inh	Rango release inh	GLA inh pH 4.5	Compound
1	?	0.7%	12%	-1	COc1ccc(-c2nc(CN3CCN(c4ncnc5ccccc45)CC3)c(C)o2)c(OC)c1
2	-2%	?	?	-4	C=CCN=C1SCC(=O)N1S(=O)(=O)c1ccccc1
3	0%	-4.0%	-4%	1	CC(C)(C)Nc1nc(Cl)nc(NCCN2CCOCC2)n1
4	.	2.4%	15%	.	COc1ccccc1OCCNC(=O)c1ccc(NC(=O)CC2SC(N3CCCC3)=NC2=O)cc1 (configuration not stated)
5	-4%	-1.8%	7%	-4	Cc1ccc(CNC(=O)CS(=O)Cc2nc(-c3ccccc3C)oc2C)cc1 (configuration not stated)
6	-16%	-0.1%	0%	.	C/C(=N\NC(=O)C1CC1)c1ccc(OC(F)F)cc1
7	.	7.5%	8%	.	COc1ccc(CCNC(=O)COc2ccc3c(c2)OCO3)cc1
8	.	-3.4%	2%	.	CC(=O)Nc1ccc(SCCN2CC[C@@H](C(C)(C)C)CCC2=O)cc1
9	-41%	-0.4%	-17%	7	Cc1ccsc1/C=N/Nc1nc2ccccc2s1
10	-8%	-3.8%	-1%	-12	CCCN(Cc1nnc(-c2ccccc2Cl)o1)C(=O)c1cc([N+](=O)[O-])cc([N+](=O)[O-])c1
11	-1%	3.1%	8%	2	CC1CN(CC(O)COC2CCC(C(C)(C)C)CC2)CC(C)O1 (configuration not stated)
12	-1%	-0.9%	-1%	.	Cc1ccc(CNC(=O)CCS(=O)(=O)c2cc3c(cc2Cl)NC(=O)CO3)o1
13	-7%	3.3%	33%	.	COc1ccc(C(=O)NNC(=O)Cc2nc3nc(C)cc(C)n3n2)cc1
14	.	2.7%	7%	.	CC1CCCCC12NC(=O)N(CC(=O)NCCc1ccccc1)C2=O (configuration not stated)
15	.	6.3%	4%	.	COc1ccc(Cl)cc1C(=O)NNC(=O)CCNS(=O)(=O)c1ccccc1
16	-11%	6.2%	-26%	8	COc1ccc(NC(=O)CSc2ccccn2)cc1OC
17	-1%	0.0%	-12%	-13	C/C(=C\C(=O)C(F)(F)F)Nc1cc(C)cc(C)c1
18	0%	?	-15%	-5	O=C(O)CCn1c2c(c3ccccc31)CCCC2
19	-5%	-6.7%	-1%	-1	O=C(NCC1CCCO1)c1ccc(CNS(=O)(=O)c2ccc(F)c(Cl)c2)cc1 (configuration not stated)
20	1%	-1.6%	12%	2	COc1ccccc1CN1C(=O)CCC1(C)C(=O)NC1CCCCCC1 (configuration not stated)
21	-8%	0.2%	-8%	.	CCN1C(=O)c2cccc3c(S(=O)(=O)Nc4ccccc4O)ccc1c23
22	-2%	-3.2%	11%	-13	CC(=O)Nc1ccc(SCC(=O)c2cc(C)n(-c3ccccc3F)c2C)cc1
23	.	1.1%	4%	.	COc1cc2c(cc1OC)[C@@H](NC(=O)COc1ccccc1)[C@H](OCc1ccccc1)C2
24	-8%	-1.8%	4%	-7	Cc1cc(C)nc(NC(=NCCc2c[nH]c3ccccc23)NC(=O)Nc2ccc(Cl)cc2)n1
25	.	0.5%	-10%	.	Cc1cc(C)cc(OCC(=O)Nc2ccc(-n3cnnn3)cc2)c1
26	.	?	?	.	COc1ccc(NS(=O)(=O)c2cc([N+](=O)[O-])ccc2NN=Cc2ccccc2OCC(=O)O)cc1
27	-19%	2.4%	-16%	-5	COc1cccc(-c2n[nH]c3c2CCC3)c1
28	.	-1.0%	3%	.	C[C@@H]1[C@@H](Sc2ccccc2)CC(=O)O[C@@H]1c1ccc(-c2ccccc2)cc1
29	0%	-12%	-15%	.	CC1CN(C(=S)Nc2cccc(Cl)c2)CC(C)O1 (configuration not stated)
30	.	?	10%	.	CC(=O)c1ccc(S(=O)(=O)Nc2ccc(-c3ccc4nncn4n3)cc2)cc1
31	.	-0.1%	17%	.	CN(C)c1cccc(F)c1C(=O)NC(=O)Nc1ccc(Cl)cc1
32	0%	2.5%	15µM*	2	Cc1cc(N2CCCC2)nc2ccc(NC(=S)NCCCN3CCC(C)CC3)cc12
33	-7%	-0.2%	1%	.	CN(CC(=O)Nc1cccc(F)c1)C(=O)COc1cccc2c1OC(C)(C)C2
34	-1%	-4.3%	-3%	.	COc1ccc(CNC(=O)[C@@H](NC(=O)C2CCN(S(=O)(=O)c3ccccc3)CC2)C(C)C)cc1
35	-2%	0.1%	-19%	1	CC1CCCCC1NC(=O)COC(=O)c1ccc(N(C)C)cc1 (configuration not stated)
36	-22%	-6.0%	20%	.	COc1cc(OC)c(C(=O)Nc2ccncc2)cc1OC
37	-3%	1.1%	4%	4	O=C(NCC(=O)N(c1cccnc1)C(C(=O)NC1CCCC1)c1cccs1)c1cccs1 (configuration not stated)
38	-2%	0.1%	-3%	0	CCOC(=O)c1ccc(N2C(=O)CC(Sc3nc(O)c(CC)c(=O)[nH]3)C2=O)cc1 (configuration not stated)
39	9%	2.4%	7%	.	O=C(CN(C(=O)c1csnn1)c1cccc2c1CCCC2)NCc1ccccc1
40	.	2.7%	0%	.	Cc1ccc(S(=O)(=O)N(C)C)cc1NC(=O)C1CCCN(C(=O)c2ccc(Cl)cc2)C1 (configuration not stated)
41	5%	-0.9%	-5%	-3	S=C(NC1CCCCC1)N1CCOCCOCCN(C(=S)NC2CCCCC2)CCOCC1
42	-8%	-3.1%	20%	2	CCOC(=O)C1=C(C)N(c2nonc2NC(C)=O)C(N)=C(C#N)C1c1ccccc1F (configuration not stated)
43	3%	-0.5%	24%	.	COc1ccc(S(=O)(=O)NCc2cccnc2)c2ccccc12
44	-46%	1.7%	-4%	6	O=C(N=c1nc2ccccn2s1)c1ccccc1
45	0%	1.8%	4%	-12	CC(C)CCC(C(=O)O)C(C)CC(=O)Nc1ccn(-c2ccccc2)n1 (configuration not stated)
46	7%	0.8%	-16%	.	C/C(=N/NC(=O)c1cc(-c2ccccc2)nc2c(Cl)cccc12)c1cccnc1
47	.	-1.3%	1%	.	COCCN(C(=O)COC(=O)CSc1ccccc1)c1c(N)n(Cc2ccccc2)c(=O)[nH]c1=O
48	-2%	0.1%	-5%	5	COc1ccc(/C=C(\NC(=O)c2ccccc2)C(=O)NC2CCS(=O)(=O)C2)cc1 (configuration not stated)
49	18%	-1.7%	-6%	.	O=C(Nc1cccc(-c2cccc(Cl)c2)c1)C1CCN(Cc2ccc(CO)o2)CC1
50	-35%	0.8%	0%	-6	Cn1nc(-c2ccc(Cl)cc2)cc1NC(=O)Nc1ccccc1
51	-10%	0.1%	5%	-4	Cc1ccc(-n2c(CNc3ccc(F)cc3)nnc2SCC(=O)N2CCCC2)cc1
52	-14%	?	-12%	-6	c1ccc(-c2nnc(CN3CCCc4ccccc43)o2)cc1
53	4%	-0.1%	1%	3	N#Cc1nc(Cl)c(Cl)c(NN)c1Cl
54	-8%	-0.3%	1%	9	Oc1ccc(Cl)cc1CNCC1CCCO1 (configuration not stated)
55	-28%	?	-17%	2	CCOC(=O)c1cnc(Nc2nc3ccccc3o2)nc1CSC(=S)N1CCCCC1
56	2%	0.8%	9%	.	COC(=O)c1ccccc1NC(=S)N1CCOCC1

Continuation.
entry	miR-21 FLuc	Rango complex inh	Rango release inh	GLA inh pH 4.5	Compound
57	-41%	-0.4%	3%	.	Cc1nc(SCc2ccc(Cl)c(Cl)c2)n[nH]1
58	-2%	0.5%	8%	6	COC(=O)COc1ccc(=O)n(-c2ccccc2)n1
59	.	2.9%	13%	.	COc1ccc(O)c(C(=O)c2cnn(S(=O)(=O)c3ccc(C)cc3)c2)c1
60	-8%	-0.2%	-4%	5	Cc1ccc(CNC(=O)CN(Cc2cccs2)C(=O)C2(C)CC(=O)N=C3C=CC=CN32)cc1 (configuration not stated)
61	1%	1.7%	-13%	2	C=C1C(O)C[C@H]2C(=C)CCC3[C@H](OC(=O)[C@]3(O)CO)[C@@H]12 (some centres not stated)
62	-10%	-0.2%	1%	1	N#C/C(=C\Nc1ccc2cn[nH]c2c1)c1nc(-c2ccccc2)cs1
63	5%	-1.2%	9%	1	O=C(NCc1cc(C(F)(F)F)cc(C(F)(F)F)c1)C1CC(c2cccc([N+](=O)[O-])c2)=NO1 (configuration not stated)
64	-2%	0.2%	5%	2	O=CN1CCN(C(=O)c2ccccc2Cl)CC1
65	0%	1.2%	-13%	.	COc1ccc(-c2noc3c2-c2nc(-c4c(F)cccc4F)sc2CC3)cc1
66	.	4.7%	-19%	.	CC(C)=CCC12Oc3cc(O)ccc3C1(O)Oc1cc3c(c(O)c1C2=O)C=CC(C)(C)O3 (configuration not stated)
67	-10%	-1.9%	-7%	-2	Cn1nnnc1SCCNCc1cccc2ccccc12
68	.	-0.1%	-8%	.	COc1ccc(NC(=O)CCC(=O)c2cc(C)sc2C)cc1
69	2%	?	?	-3	CCOC(=O)C1CCCc2c1[nH]c1c(C(=O)O)cccc21 (configuration not stated)
70	.	-0.3%	-9%	.	COc1cc(CNc2ccc(S(N)(=O)=O)cc2)ccc1OCc1ccccc1F
71	-62%	-0.5%	10%	-3	C=CCNc1nc(Nc2ccccc2F)nc(OCC)n1
72	0%	-0.3%	-3%	2	Clc1cccc(Nc2nc(-c3ccncc3)nc3ccccc23)c1
73	-2%	.	.	-8	C#CCOCCOCCOCCNc1nc(N2CCN(C(=O)[C@H](Cc3cc4ccccc4[nH]3)n3cc([C@@H](N)C(C)CC)nn3)CC2)nc(N2CCN(C(=O)[C@H](CCCCN)n3cc([C@@H](N)CO)nn3)CC2)n1 (some centres not stated)
74	-19%	-0.8%	-9%	-9	O=C1COc2ccccc2N1Cc1ccccc1Cl
75	1%	4.5%	-11%	2	Nc1ccnn1Cc1ccc(Br)s1
76	-5%	4.2%	-5%	3	CCN(CC(=O)NCc1cccs1)C(=O)c1cc(S(=O)(=O)N2CCOCC2)ccc1C
77	-1%	10%	-13%	-10	CCOC(=O)C1CN(S(=O)(=O)c2ccc(C)cc2)CCN1S(=O)(=O)c1ccc(C)cc1 (configuration not stated)
78	27%	0.7%	2%	-5	CCOC(=O)c1nnc(-c2ccccc2)nc1Sc1c(Cl)cccc1Cl
79	.	-2.0%	-7%	.	OCCOCCn1c(C(CO)Nc2nc(-c3ccccc3Br)cs2)nc2ccccc21 (configuration not stated)
